Assay outcomes as filed in PubChem BioAssay.
RecA intein inh = Mtb RecA intein splicing inhibitors, primary screen, biochemical, fluorescence, HTS | Protein RecA (Mycobacterium tuberculosis (strain ATCC 25618 / H37Rv)), P9WHJ3 | cell-free RecA intein splicing | inhibition, %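 (about 9 µM by stock and volumes)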 | 290,000 compounds, 0.75% hits | AID 2221, 2009; in the data active = inhibition above about 30%;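 note: 0% = vehicle wells and 100% = reference inhibitor control wells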
Target sequence (P9WHJ3 whole entry, looked up): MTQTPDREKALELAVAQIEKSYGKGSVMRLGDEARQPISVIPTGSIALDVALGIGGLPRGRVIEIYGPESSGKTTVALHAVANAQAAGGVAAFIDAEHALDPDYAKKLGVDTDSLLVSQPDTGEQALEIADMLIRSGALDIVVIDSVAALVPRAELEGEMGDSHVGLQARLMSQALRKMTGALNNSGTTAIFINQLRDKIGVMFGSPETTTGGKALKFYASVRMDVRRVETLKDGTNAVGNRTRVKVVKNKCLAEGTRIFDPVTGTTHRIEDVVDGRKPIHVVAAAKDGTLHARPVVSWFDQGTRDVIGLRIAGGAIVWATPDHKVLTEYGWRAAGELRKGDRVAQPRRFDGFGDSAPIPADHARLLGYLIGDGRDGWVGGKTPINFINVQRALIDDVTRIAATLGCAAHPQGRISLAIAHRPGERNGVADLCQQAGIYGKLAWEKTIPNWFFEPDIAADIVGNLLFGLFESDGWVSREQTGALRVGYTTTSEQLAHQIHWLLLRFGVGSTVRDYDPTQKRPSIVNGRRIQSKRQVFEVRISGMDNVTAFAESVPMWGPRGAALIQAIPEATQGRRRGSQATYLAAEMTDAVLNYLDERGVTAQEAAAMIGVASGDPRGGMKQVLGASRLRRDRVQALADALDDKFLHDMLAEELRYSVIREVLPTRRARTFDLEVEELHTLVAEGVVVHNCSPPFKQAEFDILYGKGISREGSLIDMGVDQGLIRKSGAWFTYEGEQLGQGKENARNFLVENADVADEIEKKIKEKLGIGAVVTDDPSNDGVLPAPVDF
YopH PTP inh = YopH tyrosine phosphatase inhibitors, primary screen, biochemical, fluorescence Ex485/Em525; YopH tyrosine phosphatase [Yersinia enterocolitica]; AID 898, 2007; 140,000 compounds, 0.16% hits; inhibition, %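 (about 10 µM by stock and volumes)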;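 active = inhibition of 50% or more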;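 note: controls were vehicle for no effect and minimum signal wells for full effect; inactives centre near -20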
Arbovirus anti = antivirals against arbovirus infection, primary screen, cell-based, full library, 10K replicate subset. inhibition, % at 10 µM. arbovirus infection cell-based antiviral screen. 200,000 compounds, 0.37% hits;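 active = inhibition from about 30%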;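 note: bluetongue infection of BSR cells; cell survival read as ATP light after 72 h; 0% = infected wells without compound and 100% = uninfected wells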
Mtb H37Rv = M. tuberculosis H37Rv growth inhibitors, H37Rv strain (AID 1626); one-dose inhibition, % at 10 µM; IC50 in µM for titrated hits; 220,000 compounds, 0.95% hits; M. tuberculosis H37Rv growth inhibition; higher % means a stronger effect;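 active = confirmed in a dose series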;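 note: bacteria incubated seven days before Alamar blue readout; 0% = bacteria only wells and 100% = bacteria with antibiotic wells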
Mtb bLac sens = beta-lactam sensitization of Mtb H37Rv, H37Rv; M. tuberculosis H37Rv growth with meropenem, percent inhibition; hits of this screen are not shown here; inhibition, % at 25 µM; 330,000 compounds, 0.27% hits; AID 434955, 2010;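 active = about 74% or more and at least 40 points above the plate without the antibiotic, then above 30% in a dose series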;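 note: growth measured after seven days incubation then overnight dye step; 0% = bacteria only wells and 100% = bacteria with antibiotic; twin plates without the antibiotic show which effects depend on it; some results filed as inactive read as strong as hits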
Arbovirus anti repeat = also measured in Arbovirus anti; calls as there; inhibition, %; measured here: 10K subset replicate screen; many hits read low in the repeat;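 first of two repeat runs on a subset; 0% = infected and 100% = uninfected wells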
The depositor's hits bear a star; nt = not tested or not shown. Not all compounds are listed (hit frequency here may not be typical).

SMILES | RecA intein inh | YopH PTP inh | Arbovirus anti | Mtb H37Rv | Mtb bLac sens | others
CS(=O)(=O)N1CCN(c2ccc(C(=O)NC34CC5CC(CC(C5)C3)C4)cc2[N+](=O)[O-])CC1 | -8.8 | -16 | -3 | 0% | 9
CCOC(=O)c1c(C)c(C(=O)NCCOC)c(C)n1CC | -1.0 | -24 | 7 | -8% | -6
CCOCC(=O)N1CCCC(C(=O)OCC)C1 (centres undefined) | -0.5 | 10 | 2 | 2% | 58
COc1ccc(O[C@H]2C=C[C@@H](c3ccccc3)O[C@@H]2COC(=O)CC/C(C)=N/O[C@@H](C)c2cc(-c3c(C)cc(C)cc3C)no2)cc1 | 1.8 | -29 | 7 | nt | nt
COc1cc2nc(C(C)(C)C)oc(=O)c2cc1OC | -0.5 | nt | nt | 14% | 4
Cc1ccc2cc(-c3noc(C(C)(C)C)n3)c(=O)[nH]c2c1 | -5.5 | -27 | 8 | 4% | -21
CCCC(=O)Nc1nc(-c2ccccc2)c(CC)s1 | 6.3 | nt | -12 | 0% | 5
CC1=C(C(=O)OC(C)(C)C)C(c2ccc(Br)cc2)NC(=O)N1CCCC(=O)O (centres undefined) | -1.1 | nt | nt | nt | -3
Cc1nc2ncccn2c1-c1csc(Nc2ccc(N(C)C)cc2)n1 | 5.4 | nt | -26 | 13µM* | nt
CC(C)(C)c1cc(Cl)ccc1OCCn1ccnc1 | 6.3 | nt | nt | nt | 87
CS(=O)(=O)Nc1ccc(Cc2ccc(NS(C)(=O)=O)cc2)cc1 | -1.6 | -18 | 15 | -7% | -2
CC(C)C(NC(=O)C(Cc1ccccc1)NC(=O)OCc1ccccc1)C(=O)O (centres undefined) | 2.4 | nt | 10 | 15% | -10
Cc1cc(C)cc(OCC(=O)NCCc2nc3ccccc3[nH]2)c1 | -0.5 | nt | -11 | -6% | -3
CCc1cc2cc(C)cc(C)c2nc1SCC(=O)NNC(=O)c1ccco1 | -0.2 | -8 | 5 | 3% | -3
CC(=O)c1sc(N/N=C\c2cccc(Br)c2)nc1C | -0.9 | -25 | 0 | 8% | 93
CCCC(=O)Nc1ccc(NC(=O)c2ccccc2OC)cn1 | nt | -39 | 8 | 5% | 11
O=C(Nc1ccc2c(c1)OCCO2)c1cnccn1 | -0.3 | -14 | 1 | 4% | -5
CC(C)(C)NC(=O)NC(=O)CN1CCN(c2cccc(Cl)c2)CC1 | 0.9 | nt | nt | 20% | 2
O=C(COc1ncnc2ccccc12)N1CCN(S(=O)(=O)c2ccc(Cl)cc2)CC1 | 0.9 | -6 | -1 | -1% | -3
CC(=O)N1c2ccc(S(=O)(=O)N3CCC(C(=O)Nc4cccc(C)c4C)CC3)cc2CC1C (centres undefined) | 1.9 | nt | nt | nt | 6
CCCC(C)NC(=O)COC(=O)c1cc(Br)c(Br)s1 (centres undefined) | -2.7 | nt | -3 | 69% | 98
O=C(CCn1c(=O)oc2ccccc21)N1CCOCC1 | -1.8 | -14 | -2 | -14% | 1
CC(NC(=O)c1ccc2ccccc2n1)c1ccc(Br)cc1 (centres undefined) | 14 | nt | nt | nt | 28
CC(C)SC1=NC(C)(C)C=C(/C=C/c2ccc(Cl)cc2Cl)N1 | 8.7 | -8 | -29 | 45% | 54

Arranged by heavy-atom count (smallest number first): 3 of the compounds above.
SMILES | RecA intein inh | YopH PTP inh | Arbovirus anti | Mtb H37Rv | Mtb bLac sens | others
CC(NC(=O)c1ccc2ccccc2n1)c1ccc(Br)cc1 (centres undefined) | 14 | nt | nt | nt | 28
CCCC(=O)Nc1ccc(NC(=O)c2ccccc2OC)cn1 | nt | -39 | 8 | 5% | 11
CC(C)(C)NC(=O)NC(=O)CN1CCN(c2cccc(Cl)c2)CC1 | 0.9 | nt | nt | 20% | 2

Next part
SMILES | RecA intein inh | YopH PTP inh | Arbovirus anti | Mtb H37Rv | Mtb bLac sens | others
CSc1cc(C)n(-c2ccccc2C)c(=S)c1C(C)=O | -0.1 | -9 | 0 | 1% | -6
O=C(CN1C(=O)C2C3C=CC(C3)C2C1=O)NCCN1CCCc2ccccc21 (centres undefined) | -4.6 | -21 | -1 | nt | -4
C/C=C(\C)C(=O)NCCN1C2=NC[C@H](C)N2C[C@@H]1Cc1ccc(OC)cc1 | -2.1 | nt | 0 | -10% | -4
CCOC(=O)C1(Cc2ccc(Cl)cc2)CCN(Cc2cn(CC)nc2C)CC1 | 0.4 | nt | nt | -1% | -13
CCCCCC1C/C(=N\O)C=C(C)C1C(=O)OC (centres undefined) | nt | nt | nt | 2% | -8
CC(=O)Nc1ccc(S(=O)(=O)NC(C)c2ccccc2)cc1 (centres undefined) | -1.4 | nt | nt | nt | 0
CC1CCCC(NC(=O)CCn2c(=S)oc3ccccc32)C1C (centres undefined) | 0.7 | nt | nt | -4% | -8
O=C(NCc1ccccn1)c1cc(-c2ccc(-c3ccccc3)cc2)nc2ccccc12 | 6.6 | -15 | 27 | 17% | 57
CC(C)(C)C(=O)Cn1c(NCCCO)nc2ccccc21 | nt | 5 | 3 | -2% | 3
O=C(CCC(=O)OCC(=O)c1ccccc1)Nc1cccc2cccnc12 | 0.6 | -12 | 4 | -9% | 1
CCN(CC)Cc1c(O)ccc2c(=O)c(Oc3ccccc3OC)c(C)oc12 | -4.4 | nt | nt | 11% | -4
Cc1ccc(OC(=O)c2ccc3nc(C)sc3c2)cc1 | nt | nt | 19 | 76% | 92
O=C(N/N=C/c1cc([N+](=O)[O-])ccc1N1CCCCCC1)c1ccccn1 | 5.4 | nt | -11 | 0% | 97
CC(=O)Nc1nc(C)c(CCCOc2ccc([N+](=O)[O-])cc2)c(=O)[nH]1 | 1.3 | nt | nt | -6% | 3
O=C(Cc1ccccc1)Oc1ccc(N2C(=O)C3CCCCC3C2=O)cc1 (centres undefined) | 0.2 | -36 | 4 | -5% | -13
CCOC(=O)CNC(=O)COc1coc(CN2CCN(c3ccc(F)cc3)CC2)cc1=O | 0.0 | nt | nt | nt | 3
COc1cc(NC(=O)CN2C(=O)NC(C)(c3ccc(OC(F)F)cc3)C2=O)cc(OC)c1OC (centres undefined) | -0.6 | nt | nt | nt | -4
Cc1[nH]nc2c1C(c1cccs1)C(C#N)=C(N)O2 (centres undefined) | 54* | nt | -10 | 9% | 1
COC(=O)CCn1nnc(-c2ccc(C)cc2)n1 | -2.9 | 31 | 1 | 20% | 97
Cc1nn(CC(=O)Nc2ccccn2)c(C)c1Br | 0.7 | -20 | 1 | -7% | 3
Cc1nc2c3cnn(-c4ccccc4)c3ncn2n1 | 1.5 | 11 | -7 | 7% | -5
CCOc1cc(/C=N/NC(=O)c2cccc([N+](=O)[O-])c2)ccc1OS(=O)(=O)c1ccccc1 | 4.2 | -34 | -10 | -4% | -2
O=C(NC(NC(=S)Nc1cc(Cl)ccc1Cl)C(Cl)(Cl)Cl)c1ccco1 (centres undefined) | nt | -31 | -18 | 2% | 6
OCCN=c1cc(-c2ccccc2)oc2ccc(Cl)cc12 | -1.0 | -14 | -18 | -11% | 71
O=C1NC(=Nc2ccccc2)S/C1=C\c1cccs1 | -1.2 | nt | nt | 3% | 3
O=[N+]([O-])c1cncc([N+](=O)[O-])c1Nc1ccccc1Cl | 15 | nt | 4 | 30% | 93
COc1ccc(-c2sc(Nc3ccc(F)c(F)c3F)nc2CCC(=O)NN)cc1 | 1.2 | nt | nt | nt | 60
Cn1c(=O)c(=O)n(C)c2cc(S(=O)(=O)CCC(=O)Nc3c(F)c(F)c(F)c(F)c3F)ccc21 | 0.0 | nt | nt | nt | 9
Cc1ccc(S(=O)(=O)N2CCC(NC(=O)OC(C)C)CC2)cc1 | -1.0 | nt | 0 | 5% | -3
Cc1ccc(NC(=S)N2CCn3cccc3C2c2cccnc2)cc1 (centres undefined) | 1.7 | -25 | 7 | nt | -5
CC1CCN(S(=O)(=O)c2ccc3c(c2)c(=O)c(C(=O)N2CCCCC2)cn3C)CC1 | -2.4 | -3 | 0 | 0% | 0
O=C(CSc1ccc2nnc(CCNC(=O)c3ccccc3)n2n1)NCc1ccco1 | -0.8 | nt | nt | nt | 3
Cc1cc(C(=O)N2CCN(c3cccc(Cl)c3)CC2)c(C)o1 | -0.2 | -8 | -14 | 4% | -3
CC1=NN(c2ccccc2)C(=O)C1C=Nc1ccc(N(C)C)cc1 (centres undefined) | nt | nt | nt | 6% | -6
Cc1cc(C)nc(/N=C(\N)Nc2ccc(-c3ccccc3)cc2)n1 | 1.1 | nt | -29 | 2.7µM* | 100
COCCOC(=O)C1=C(C)NC(=O)CC1c1cc2c(cc1Br)OCO2 (centres undefined) | 5.0 | -15 | -5 | 3% | 6
C=CCNC(=O)C1CC2Cn3c(nc4cc(C)c(C)cc43)C2N1C (centres undefined) | -2.9 | nt | nt | -9% | 3
CS(=O)(=O)N(CC(=O)NCCc1ccccc1)c1cccc([N+](=O)[O-])c1 | 1.7 | nt | 5 | -1% | 3
CN(Cc1nc2ccccc2c(=O)[nH]1)C(=O)c1ccc(S(=O)(=O)N(C)C)cc1 | 1.4 | -16 | 14 | -6% | -10
O=C1c2ccccc2CC1Sc1nnc(-c2ccncc2)o1 (centres undefined) | 0.3 | 10 | -10 | -1% | 100
COc1ccc(-n2c(CCC(=O)O)ccc2-c2ccccc2)cc1 | 0.3 | nt | 0 | 46% | 2
COc1cc2c(=O)n(CCC(=O)NCC3CCCO3)c(=O)n(CC(=O)c3ccc(Cl)cc3)c2cc1OC (centres undefined) | 0.5 | nt | 3 | -10% | -5
COc1ccc(NC(=O)/C(C#N)=C\c2ccc(Br)o2)cc1 | -2.3 | nt | nt | -3% | -1
CC(C(=O)OCC(=O)c1ccccc1)N1C(=O)c2ccccc2C1=O (centres undefined) | -0.5 | nt | 3 | 4% | 7
O=c1[nH]nc(Cc2ccc([N+](=O)[O-])cc2)c2ccccc12 | -1.5 | nt | nt | nt | -2
Clc1ccc(-c2nc3nc4ccccc4nc3n2Cc2ccco2)cc1 | nt | -34 | 3 | 10% | 0
Cc1[nH]n(-c2ccccc2)c(=O)c1C1(C(F)(F)F)C(=O)N(c2ccc(F)cc2)C2=C1C(=O)CC(C)(C)C2 (centres undefined) | 1.7 | -2 | -14 | 1% | -6
Cc1cc(NCc2ccccn2)ccc1Br | 9.9 | -9 | 4 | 84% | 92

Next section; it opens with the five that closed the last part.
SMILES | RecA intein inh | YopH PTP inh | Arbovirus anti | Mtb H37Rv | Mtb bLac sens | others
CC(C(=O)OCC(=O)c1ccccc1)N1C(=O)c2ccccc2C1=O (centres undefined) | -0.5 | nt | 3 | 4% | 7
O=c1[nH]nc(Cc2ccc([N+](=O)[O-])cc2)c2ccccc12 | -1.5 | nt | nt | nt | -2
Clc1ccc(-c2nc3nc4ccccc4nc3n2Cc2ccco2)cc1 | nt | -34 | 3 | 10% | 0
Cc1[nH]n(-c2ccccc2)c(=O)c1C1(C(F)(F)F)C(=O)N(c2ccc(F)cc2)C2=C1C(=O)CC(C)(C)C2 (centres undefined) | 1.7 | -2 | -14 | 1% | -6
Cc1cc(NCc2ccccn2)ccc1Br | 9.9 | -9 | 4 | 84% | 92
Cc1ccc(C(=O)NS(=O)(=O)c2ccc(N=NN(C)C)cc2)cc1 | -0.2 | nt | 2 | -12% | 4
Cc1ccc(-c2cnc(NC(=O)c3cccc(Br)c3)s2)c(C)c1 | 0.7 | -32 | 5 | -4% | -2
O=C(CSc1nc(=O)n(CCCN2CCOCC2)c2c1CCCC2)Nc1ccccc1Cl | -2.0 | nt | nt | nt | -4
O=C1CCC(=O)N1c1ccc(NCCc2ccccc2F)c([N+](=O)[O-])c1 | -3.0 | nt | 1 | -6% | -7
CC1(C)Oc2ccc3ccc(=O)oc3c2/C(=C/Nc2ccccc2)C1=O | nt | -11 | -1 | -3% | -2
O=C(CCCOc1ccccc1)N1CCCCC1 | -3.2 | -18 | 2 | -12% | 4
COc1cc(OC)c(NC(=O)CCCNC(=O)Cn2cnc3sc(C)c(C)c3c2=O)cc1Cl | -3.0 | nt | nt | nt | -4
Cc1ccccc1NN1C(=O)C=CC1=O | -1.6 | -33 | 2 | 0% | -5
CCNC(=S)Nc1ccc(Cc2ccncc2)cc1 | -1.4 | nt | 4 | -1% | -12
CCCCC1=CC2=CC(=O)C(C)(O)C(=O)C2=CO1 (centres undefined) | 3.0 | nt | nt | -7% | 2
Cc1ccc(C)c(OCCC(=O)Nc2cccc(S(=O)(=O)N3CCCC3)c2)c1 | -4.2 | nt | nt | nt | -18
CN(C)S(=O)(=O)c1ccc(C(=O)Nc2nc(-c3cccs3)cs2)cc1 | -3.8 | nt | 5 | -3% | -1 | Arbovirus anti repeat=0
CC(C)(C)NC(=S)NC(C)(C)C | -0.4 | nt | nt | -4% | nt
